Screening results: PubChem BioAssay, Broad Institute
Calb FLC: C. albicans growth modulation with fluconazole; C. albicans CaCi-2 (fluconazole-resistant clinical isolate) + fluconazole, Alamar Blue growth, 48 h; growth inhibition, % (test concentration not listed); 300,000 tested, 0.57% active;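 active = most replicates above 75%; inconclusive = exactly half above 75%; inactive = most below 75%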;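 also: all wells also contain fluconazole at 8 µg/ml as a sub-toxic cotreatment; 0% = median of DMSO wells and 100% = median of geldanamycin control wells; wells of about 8 µL received 7.5 nL stock; the first replicate is given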
FGF22 binding: shifts melting point of recombinant human FGF22; recombinant FGF22 thermal shift, SYPRO orange fluorescence; percent of sucrose octasulfate shift, DMSO zero; calls only at 9.99 µM; 340,000 tested, 1.5% active; AID 651658;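 active = melting point raised past a set limit in the mean and every replicate; inconclusive = no clear call; three in four hits are not shown here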
Target sequence (Q9HCT0 whole entry, looked up): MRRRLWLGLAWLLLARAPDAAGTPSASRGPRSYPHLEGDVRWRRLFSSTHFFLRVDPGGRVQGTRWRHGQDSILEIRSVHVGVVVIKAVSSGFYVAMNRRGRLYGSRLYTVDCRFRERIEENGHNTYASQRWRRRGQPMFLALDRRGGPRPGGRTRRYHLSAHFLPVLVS
Ecoli rRNA inh: inhibitors of bacterial rRNA selective over humanized ribosomes. GFP signal change (wild-type ribosome), % (no concentration beside the values). E. coli WT GFP vs humanized-ribosome RFP mutants, fluorescence, 24 h; hits give low values; DMSO median 0, no signal -100. 350,000 tested, 1.6% active. AID 720706;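 active = significant combined selectivity score with lowered wild-type GFP, culture density cut under 30%, mutant RFP and density less affected; inactive = any of these conditions unmet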; also: one replicate is shown; some compounds called inactive have numbers as strong as hits
ALR H2O2 inh: inhibitors of human sulfhydryl oxidase ALR; P55789; purified ALR, DTT oxidation, H2O2 HRP-luminol luminescence; inhibition, % (concentration not given with the values); 290,000 tested, 3.8% active; AID 485317;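 active = mean and each replicate at 75% or more; inconclusive = only one of the two met; inactive = neither met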;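 also: stock transfer was 7.5 nL into about 7.5 µL; 0% = neutral wells and 100% = wells with inactivated enzyme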
Target sequence (P55789 whole entry, looked up): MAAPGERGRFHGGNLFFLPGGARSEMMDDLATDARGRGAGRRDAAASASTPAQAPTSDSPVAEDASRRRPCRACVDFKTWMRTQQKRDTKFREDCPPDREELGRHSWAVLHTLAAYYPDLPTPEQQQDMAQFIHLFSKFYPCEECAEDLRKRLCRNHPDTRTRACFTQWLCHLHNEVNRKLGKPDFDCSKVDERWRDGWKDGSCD
RanGTP-Imp inh: inhibitors of RanGTP-importin-beta interaction, primary screen, biochemical, FRET, CFP-Ran, YFP-importin-beta, homogeneous | AID 2216 | cell-free CFP-Ran/YFP-importin-beta FRET ratio | 300,000 tested, 1.1% active | inhibition, % (test concentration not listed);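 active = most replicates above 15%; inconclusive = exactly half above 15%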;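 also: 0% = DMSO wells and 100% = Ran loaded with GDP instead of GTP; wells of about 40 µL received 100 nL stock; the first replicate is given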
Beta cell apopt: blocks beta cell apoptosis; INS-1E cytokine-induced death, ATP luminescence, 48 h; percent of positive-control rescue, neutral wells zero; protection from apoptosis, % (concentration not given with the values); 300,000 tested, 0.8% active; AID 435005;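 active = all replicates at 75% or more, or half of them and the mean; inconclusive = half reach 75% but not the mean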;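 also: 0% = cytokine-treated negative control wells and 100% = positive control rescue; higher means more ATP so stronger rescue from cytokine killing; wells of about 40 µL received 100 nL stock; the first replicate is given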
T cruzi repl: blocks replication of Trypanosoma cruzi; T. cruzi beta-gal in NIH3T3, luminescence, 90 h; inhibition, % (test concentration not listed); 300,000 tested, 1.4% active; AID 1885;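 active = mean inhibition across valid replicates above about 55%, limit read from the data; inconclusive = mean below that limit but half or more replicates reach it; inactive = mean below it, under half of replicates reach it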;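 also: signal also drops with host cell toxicity which is not excluded here; 0% = plate median of DMSO wells and 100% = zero luminescence signal; higher percent means less beta-gal luminescence so fewer parasites; stock transfer was 50 nL into about 50 µL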
MLL AF4-AF9 inh: blocks AF4 peptide binding to human AF9; inhibition, % at 10 µM; AlphaScreen, biotin-AF4 peptide binding to FLAG-AF9; P42568; 350,000 tested, 0.47% active;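 active = every replicate reaching a set inhibition limit, whatever the replicate mean, cut at about 25% in these data; inconclusive = mean inhibition reaches that limit but some replicates miss it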;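 also: 0% = plate neutral control median and 100% = total signal loss; the record names both 10 and 1 µM as test concentration; the first replicate is given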
Ecoli rRNA inh OD600: further read-out of Ecoli rRNA inh, marked with its call; OD600 change, %; measured here: OD600 growth;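 optical density of the mix in the first replicate; 0 = DMSO median and -100 = no signal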
Ecoli rRNA inh RFP: also measured in Ecoli rRNA inh; calls as there; RFP signal change, %; measured here: RFP humanized mutant strains;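 first replicate; 0 = DMSO median and -100 = no signal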
Starred values were filed as active, the others as inactive; i = inactive; ? = inconclusive; . = not tested or not shown. This is a subset; rates above refer to the full screens.

mol	Calb FLC	FGF22 binding	Ecoli rRNA inh	Ecoli rRNA inh OD600	Ecoli rRNA inh RFP	ALR H2O2 inh	RanGTP-Imp inh	Beta cell apopt	T cruzi repl	MLL AF4-AF9 inh
Cc1nn(CC(=O)NCc2ccco2)c(C)c1[N+](=O)[O-]	8	i	1	2	-2.5	-5	2.5	1	11	1.8
COc1cc(OC)cc(-c2c(-c3cccs3)c3cc(-c4cnc(OC)nc4)ccc3n2C)c1	.	i	1	1	8.6	-5	.	-4	.	3.5
COc1ccc(NC(=O)c2ccc(F)cc2)cc1S(=O)(=O)Nc1cc(C)ccc1Br	1	.	.	.	.	5	-1.5	4	47	.
CCCCCCCCCCOC(=O)Cn1c(COc2cccc(OC)c2)[n+](C)c2ccccc21	-11	.	.	.	.	-29	-1.9	109*	65*	.
COc1cccc(C2C(=O)c3ccccc3C2=O)c1	9	i	19	11	1.7	0	-1.9	-3	-19	2.0
COc1cc(/C=N\N=C2/SC(CC(=O)O)C(=O)N2c2ccc(O)cc2)ccc1O (centres undefined)	4	.	.	.	.	99*	5.8	2	-5	.
COCCn1cc(C(=O)NCc2ccco2)c2c3ccccc3n(C)c2c1=O	6	i	8	10	15	-5	-1.8	-7	-2	-11
CCN(C(=O)COC(=O)/C(C#N)=C/c1ccc(N(C)C)cc1)C1CCS(=O)(=O)C1 (centres undefined)	.	i	.	.	.	-1	.	3	.	1.7
CC(=O)N1CC(C)Sc2ccc(S(=O)(=O)NC3CCCCC3)cc21 (centres undefined)	23	i	-4	-2	0.2	-2	4.3	3	11	-1.1
Cc1nn(-c2ccccc2)c(C)c1/C=N/n1c(-c2ccncc2)n[nH]c1=S	25	i	11	13	-2.2	.	0.7	3	10	1.9
Cc1nnc(NC(=O)C2=COCCO2)s1	-4	i	8	7	-2.2	.	1.3	-1	-5	0.5
O=C(Nc1ccccc1N1CCOCC1)c1ccc(N2CCCC2=O)cc1	.	i	.	.	.	1	.	0	.	0.9
CSc1ccc(CNC(=O)Cc2ccc(NC(=O)C3=C(C)OCCS3)cc2)cc1	-5	i	8	12	3.6	31	1.1	16	-10	4.8
NC(=O)COC(=O)c1ccccc1Nc1ccc(SC(F)F)cc1	-2	.	.	.	.	28	-0.4	1	-4	.
O=C(CSc1cccs1)Nc1ccc(Cl)cc1	1	i	-11	-4	0.2	-6	3.6	-1	-14	12
Cc1cc[n+](-c2nc3ccccc3nc2[N-]S(=O)(=O)c2ccccc2)cc1	-3	i	7	12	-1.3	-20	-2.5	-1	-9	-9.4
CCc1ccc(Nc2ncc3c(n2)CC(C)(C)CC3=O)cc1	3	i	1	-1	-0.4	.	-1.2	8	6	0.2
COc1cc(CN2CCSCC2)cc(OC)c1OC	0	.	.	.	.	-1	1.1	-5	-10	.
CCN(CC)C(=O)[C@H]1CC(CC(=O)NC/C=C(\C)CCC=C(C)C)C(=O)N2CCc3c([nH]c4ccccc34)[C@]12C (some centres undefined)	.	i	15	12	-0.5	.	.	-7	.	-1.8
O=C(c1cccs1)N1CCC(c2ccccc2)C1 (centres undefined)	21	.	.	.	.	.	4.7	0	2	.
O=C(O)C1CCCN1S(=O)(=O)c1ccc2[nH]c(=O)c(=O)[nH]c2c1 (centres undefined)	-14	.	.	.	.	-5	0.0	3	1	.
CC1CCCC(C)N1C(=O)c1cc(F)c(F)cc1Cl (centres undefined)	8	.	.	.	.	-5	0.6	-5	-14	.
Cc1ccc(NS(=O)(=O)c2ccc3c(c2)c(=O)n(C)c(=O)n3C)cc1F	0	.	.	.	.	3	4.6	-1	10	.
Cc1cc(C)n(CCC(=O)Nc2ccc3c(c2)OCCO3)n1	-16	i	3	4	-1.8	-9	2.8	-3	-18	-2.0
COC(=O)c1ccc(NC(=O)CNC(=O)C2CCCCC2)c(C)c1	-12	.	.	.	.	.	-1.7	-2	-15	.
C/C(N)=C(/C#N)C(=O)CSc1nnc(-c2ccccc2)n1C	-8	i	9	14	-3.1	.	-0.8	-5	-2	-30
COc1ccc(C(=O)Nc2ccc(NC(=O)c3cccc(OC)c3)cn2)cc1	-4	i	5	-3	-1.7	2	-1.0	-4	-3	-13
CCCCOc1ccc(CC(=O)NCC(=O)O)cc1	-14	.	.	.	.	0	1.2	1	-1	.
CCC(CC)C(=O)OCC(=O)Nc1cc(OC)c([N+](=O)[O-])cc1C	15	.	.	.	.	.	0.0	-5	2	.
CCOC(=O)c1cnc(-c2ccccc2O)nc1Cl	48	i	7	10	2.9	1	-1.2	-2	5	-2.4
Cc1ccc(S(=O)(=O)N2CCC(C(=O)NCc3ccncc3)CC2)cc1	-21	.	.	.	.	-3	0.7	2	-7	.
CC(=O)Nc1ccc(OCc2cccc([N+](=O)[O-])c2)cc1	-6	i	9	13	-0.6	-2	4.4	-1	-22	1.4
COc1ccc(F)cc1S(=O)(=O)N1CCC2(CC1)OCCN2S(=O)(=O)c1ccccc1	4	.	1	-1	-2.1	.	3.8	.	8	0.3
COc1ccc(C(=O)OCC(=O)c2ccc3c(c2)NC(=O)CO3)cc1OC	.	i	5	4	0.3	-2	.	-2	.	0.3
COc1ccccc1CNC(=O)CCCc1nnc2n(C)c(=O)c3sccc3n12	-5	i	3	14	-2.9	-3	4.2	-3	-15	-3.5
Cc1cccc(NC(c2ccc(C)s2)c2ccc3ccc(C)nc3c2O)n1 (centres undefined)	11	i	7	-1	4.2	-13	-0.8	.	?	1.2
Cc1ccc(C)c(NC(=O)Cn2nnc(C(=O)NCc3cccs3)c2N)c1	-1	.	.	.	.	-21	2.1	0	-1	.
O=C(O)c1n[nH]nc1-c1ccccc1	-1	i	12	8	2.9	-1	1.5	-1	-13	-4.5
COc1ccccc1CNC(=O)c1ccc2c(=O)n(CCCN3CCCC3=O)c(=S)[nH]c2c1	5	i	11	7	-1.2	60	-4.9	-1	5	-2.2
COc1ccccc1/C=C/CN1CCSCC1	-17	i	1	5	-2.3	-2	-1.4	-15	-4	7.2

Compound profiles (already shown).
Cc1ccc(NS(=O)(=O)c2ccc3c(c2)c(=O)n(C)c(=O)n3C)cc1F reads Calb FLC = 0; FGF22 binding = .; Ecoli rRNA inh = .; Ecoli rRNA inh OD600 = .; Ecoli rRNA inh RFP = .; ALR H2O2 inh = 3; RanGTP-Imp inh = 4.6; Beta cell apopt = -1; T cruzi repl = 10; MLL AF4-AF9 inh = .
O=C(O)c1n[nH]nc1-c1ccccc1 reads Calb FLC = -1; FGF22 binding = i; Ecoli rRNA inh = 12; Ecoli rRNA inh OD600 = 8; Ecoli rRNA inh RFP = 2.9; ALR H2O2 inh = -1; RanGTP-Imp inh = 1.5; Beta cell apopt = -1; T cruzi repl = -13; MLL AF4-AF9 inh = -4.5

The list continues:
The line under a structure holds: Calb FLC	FGF22 binding	Ecoli rRNA inh	Ecoli rRNA inh OD600	Ecoli rRNA inh RFP	ALR H2O2 inh	RanGTP-Imp inh	Beta cell apopt	T cruzi repl	MLL AF4-AF9 inh
- Cc1nnsc1C(=O)N1CCN(c2ccc(C#N)cn2)CC1
  -7	i	.	.	.	-20	-3.8	5	12	1.0
- CNS(=O)(=O)c1ccc(NC(=O)Nc2cccc(F)c2)cc1
  -9	i	-7	5	-2.8	-11	3.1	1	10	-1.8
- CCOC(=O)C1CCCN(C(=S)Nc2cccc(Cl)c2C)C1 (centres undefined)
  -6	i	3	5	-3.7	0	-0.9	-5	-13	-4.8
- COC(=O)c1cccc(C(=O)N2CCCC(CNC(=O)c3ccccc3Cl)C2)c1 (centres undefined)
  3	i	7	8	3.2	1	-2.7	0	-14	-18
- O=C(NCCc1csc(-c2ccc(Cl)cc2)n1)c1ccco1
  -7	i	-8	-26	-8.3	2	4.1	3	21	1.8
- O=C(CCn1nc(-c2ccc(Cl)cc2)ccc1=O)N1CCN(c2ccc(F)cc2)CC1
  7	.	-5	-20	-2.7	-1	-2.5	2	-3	7.4
- COCCCNC(=S)NNC(=O)c1csc2ccccc12
  9	i	4	6	3.0	9	?	.	-14	3.8
- CCCCn1c(SCn2nnc3ccccc3c2=O)nc2cc(S(N)(=O)=O)ccc21
  11	.	-15	-10	5.7	-1	1.5	4	5	.
- O=C(NCCN1CCOCC1)c1cc(-c2ccc(Cl)cc2Cl)on1
  30	i	11	1	-0.5	-2	-1.4	1	9	-0.5
- CC1CN(CC(O)COc2ccc(C#N)cc2)CCN1CC(O)COc1ccc(C#N)cc1 (centres undefined)
  7	i	15	17	-2.1	1	-2.2	-6	10	-4.4

Copied from the list.
Ecoli rRNA inh RFP with `O=C(NCCN1CCOCC1)c1cc(-c2ccc(Cl)cc2Cl)on1` is entered as -0.5
ALR H2O2 inh with `Cc1nnsc1C(=O)N1CCN(c2ccc(C#N)cn2)CC1` is entered as -20
ALR H2O2 inh with `CCCCn1c(SCn2nnc3ccccc3c2=O)nc2cc(S(N)(=O)=O)ccc21` is entered as -1
